NOMO-1 viab = NOMO-1 AML cell viability reduction, primary screen, STK33 inhibitor project, CellTiter-Glo luminescence. NOMO-1 AML viability, 72 h. inhibition, % (concentration not given with the values). 37,000 tested, 7.5% active;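 active means most replicates above 80%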;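 further: wells of about 30 µL received 25 nL stock; 0% = median of vehicle wells and 100% = reference inhibitor level; the first replicate is given; inactives centre near 10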
Numbers without * were called inactive.

molecule	NOMO-1 viab
CNC[C@H]1Oc2ccc(NS(=O)(=O)c3ccc(F)cc3)cc2C(=O)N([C@H](C)CO)C[C@H]1C	3
C[C@@H]1CN([C@H](C)CO)C(=O)Cc2cc(NC(=O)Nc3ccccc3)ccc2O[C@@H]1CN(C)C(=O)Nc1ccc(C(F)(F)F)cc1	21
CCCc1c(Cc2c(F)cccc2Cl)c(=O)oc2cc(O)ccc12	120*
O=C(NC1=NCCS1)c1cc2ccccc2o1	13
C[C@@H]1CCCCO[C@@H](CN(C)C(=O)c2ccncc2)[C@@H](C)CN([C@H](C)CO)C(=O)c2cc(NS(=O)(=O)c3ccccc3)ccc2O1	7
COC(=O)c1ccc(NC(=O)CCC(=O)c2ccc(C)cc2C)cc1	6
COC(=O)c1cccc(-n2c(CCC(=O)O)ccc2-c2cccs2)c1	-17
COc1ccc(S(=O)(=O)N(C)C[C@H]2Oc3c(NC(=O)c4ccncc4)cccc3C(=O)N([C@@H](C)CO)C[C@H]2C)cc1	11
C[C@@H]1CN([C@@H](C)CO)C(=O)Cc2cc(NC(=O)Cc3ccccc3)ccc2O[C@@H]1CN(C)CC1CCCCC1	-2
Cc1ccc(S(=O)(=O)Nc2ccc3c(c2)C(=O)N([C@H](C)CO)C[C@@H](C)[C@@H](CN(C)S(=O)(=O)c2ccc(Cl)cc2)O3)cc1	38
Cc1noc(C)c1S(=O)(=O)N(C)C[C@@H]1Oc2ccc(NS(=O)(=O)c3ccccc3)cc2CC(=O)N([C@H](C)CO)C[C@H]1C	-1
COc1ccc(-n2c(CSc3nnc(-c4ccc(OC)c(OC)c4)n3-c3ccccc3)n[nH]c2=S)cc1	30
CC(Oc1ccccc1)C(=O)O (centres undefined)	32
O=C(COc1ccc([N+](=O)[O-])cc1)Nc1ccc(-c2nc3ccccc3o2)cc1	-22
Cc1ccc(S(=O)(=O)Nc2cccc3c2O[C@@H](CN(C)Cc2ccc(C(=O)O)cc2)[C@H](C)CN([C@H](C)CO)C3=O)cc1	-7
CNC[C@H]1Oc2ccc(NS(=O)(=O)c3c(C)noc3C)cc2C(=O)N([C@@H](C)CO)C[C@@H]1C	9
O=C(O)CCC(=O)Nc1ccc(C(=O)O)cc1	1
C=CS(=O)(=O)c1ccc(OC)c(N)c1	120*
C=C1C2CCC3[C@]4(C)CCC[C@@](C)(C(=O)O)C4CC[C@]3(C2)C1OC(C)=O (some centres undefined)	19
Cc1noc(C)c1S(=O)(=O)Nc1ccc2c(c1)C(=O)N([C@@H](C)CO)C[C@H](C)[C@@H](CN(C)S(=O)(=O)c1cn(C)cn1)O2	18
C[C@H]1CN([C@@H](C)CO)C(=O)Cc2cc(NC(=O)Cc3cn(C)c4ccccc34)ccc2O[C@@H]1CN(C)Cc1ccc(-c2ccccc2)cc1	122*
CCOc1ccc(Br)cc1S(=O)(=O)NC1CC(C)(C)NC(C)(C)C1	2
COc1ccc(CN(C)C[C@@H]2Oc3ccc(NS(=O)(=O)c4ccccc4)cc3CC(=O)N([C@H](C)CO)C[C@H]2C)cc1	6
COc1ccc2c(c1)OCC(Cc1ccc(OC)c(OC)c1)C2=O (centres undefined)	-3
COc1ccc(CN(C)C[C@@H]2Oc3ccc(NS(=O)(=O)c4ccc(F)cc4)cc3C(=O)N([C@H](C)CO)C[C@@H]2C)cc1	12
C[C@@H]1CN([C@H](C)CO)C(=O)Cc2cc(NC(=O)Cc3ccccc3)ccc2O[C@H]1CN(C)C	-9
Cc1nnc(SCC(=O)Nc2cccc(Cl)c2Cl)n1-c1ccc(F)cc1	31
COc1ccc(C(=O)CC2(O)C(=O)N(Cc3ccccc3)c3ccc(Br)cc32)cc1[N+](=O)[O-] (centres undefined)	111*
Cc1noc(C)c1S(=O)(=O)Nc1ccc2c(c1)CC(=O)N([C@H](C)CO)C[C@@H](C)[C@H](CN(C)Cc1ccc(C(=O)O)cc1)O2	12
COc1ccc(NC(=O)Nc2ccc3c(c2)C(=O)N([C@@H](C)CO)C[C@@H](C)[C@@H](CN(C)Cc2ccccc2)O3)cc1	-5

Of the compounds above, these contain a nitro group on carbon.
molecule	NOMO-1 viab
O=C(COc1ccc([N+](=O)[O-])cc1)Nc1ccc(-c2nc3ccccc3o2)cc1	-22
COc1ccc(C(=O)CC2(O)C(=O)N(Cc3ccccc3)c3ccc(Br)cc32)cc1[N+](=O)[O-] (centres undefined)	111*

Going on with the list:
molecule	NOMO-1 viab
Cc1ccc(S(=O)(=O)N(C)C[C@H]2Oc3ccc(NS(=O)(=O)c4ccc(Cl)cc4)cc3CC(=O)N([C@@H](C)CO)C[C@H]2C)cc1	49
Cn1c(=O)c2c(n(C)c1=O)n(C)c(=O)n2C	14
C[C@H]1CN([C@@H](C)CO)C(=O)c2cc(NS(=O)(=O)c3cccs3)ccc2O[C@H]1CN(C)S(=O)(=O)c1cccs1	16
CCC(=O)N1CCN(c2ccc(Cl)cc2NC(=O)COc2ccc(Br)cc2)CC1	25
CC(C)(C)NC(=O)Cn1cc(C(=O)c2ccco2)c2ccccc21	26
Cc1noc(C)c1NC(=O)Nc1ccc2c(c1)CC(=O)N([C@@H](C)CO)C[C@H](C)[C@@H](CN(C)C(=O)Nc1ccccc1)O2	-5
C[C@H]1CN([C@@H](C)CO)C(=O)Cc2cc(NC(=O)Nc3ccccc3)ccc2O[C@@H]1CN(C)C(=O)Nc1cccc2ccccc12	-15
COc1ccc(NC(=O)Nc2ccc3c(c2)C(=O)N([C@@H](C)CO)C[C@@H](C)[C@@H](CN(C)Cc2ccc(C(=O)O)cc2)O3)cc1	2
O=C1c2cccc3cccc(c23)C(=O)N1CCCSc1nnc(-c2ccncc2)n1-c1ccccc1	30
Cc1noc(C)c1S(=O)(=O)N(C)C[C@H]1OCCCC[C@@H](C)Oc2ccc(NC(=O)C3CCCCC3)cc2C(=O)N([C@H](C)CO)C[C@@H]1C	-1
C[C@H]1CN([C@@H](C)CO)C(=O)c2cc(NC(=O)Nc3cccc4ccccc34)ccc2O[C@@H]1CN(C)C(=O)Nc1ccccc1	17
Cc1cc(C)c(NC(=O)CCNC2CCCCC2)c(C)c1	32
C[C@@H]1CN([C@H](C)CO)C(=O)c2cccc(NC(=O)NC3CCCCC3)c2O[C@@H]1CN(C)Cc1ccccc1	20
Cc1cccc(Cn2c(NCCCO)nc3c2c(=O)n(C)c(=O)n3C)c1	26
C[C@H]1CN([C@@H](C)CO)C(=O)Cc2cc(NC(=O)Nc3cccc4ccccc34)ccc2O[C@@H]1CN(C)C(=O)Nc1ccc2c(c1)OCO2	8
Cc1ccc2cc(S(=O)(=O)NCCC(=O)O)ccc2c1	4
COc1ccc(NC(=O)Nc2cccc3c2O[C@H](CN(C)S(C)(=O)=O)[C@H](C)CN([C@@H](C)CO)C3=O)cc1	-13
C[C@H](CO)N1C[C@H](C)[C@H](CN(C)CC2CCCCC2)Oc2ccc(NC(=O)Nc3cccc4ccccc34)cc2CC1=O	99*
Cc1c(Cl)cccc1NC(=O)C(C)N(c1ccc(Oc2ccccc2)cc1)S(C)(=O)=O (centres undefined)	25
CCc1ccc(OCC(=O)Nc2sc3c(c2C(N)=O)CCCC3)c(Br)c1	10
C[C@@H]1CN([C@H](C)CO)C(=O)Cc2cc(NS(=O)(=O)c3ccc(F)cc3)ccc2O[C@@H]1CN(C)C	-4
O=c1oc(-c2cccc(Cl)c2)nc2c1cnn2-c1ccccc1	115*
CNC[C@H]1Oc2ccc(NC(=O)Nc3ccc(F)cc3)cc2CC(=O)N([C@H](C)CO)C[C@H]1C	-8
COc1ccc(S(=O)(=O)Nc2ccc3c(c2)CC(=O)N([C@H](C)CO)C[C@@H](C)[C@@H](CN(C)C(=O)Nc2ccc4c(c2)OCO4)O3)cc1	10
C[C@H]1CN([C@@H](C)CO)C(=O)Cc2cc(NC(=O)C3CCCCC3)ccc2O[C@@H]1CN(C)C(=O)Nc1cccc2ccccc12	-6
CCc1c(C)nc(Nc2nc(C)c3ccc(OC)cc3n2)[nH]c1=O	42
C[C@H]1CN([C@@H](C)CO)C(=O)Cc2cc(NC(=O)CCCCCC(=O)Nc3ccccc3N)ccc2O[C@H]1CN(C)Cc1ccc(Cl)c(Cl)c1	127*
COc1ccc(S(=O)(=O)N(C)C[C@H]2Oc3ccc(NC(=O)C4CCCCC4)cc3C(=O)N([C@@H](C)CO)C[C@@H]2C)cc1	-3
C[C@@H]1CN([C@H](C)CO)C(=O)c2cc(NC(=O)CCCCCC(=O)Nc3ccccc3N)ccc2O[C@@H]1CN(C)Cc1ccncc1	4
COc1ccc(CN(C)C[C@@H]2Oc3ccc(NS(=O)(=O)c4ccccc4)cc3C(=O)N([C@@H](C)CO)C[C@@H]2C)cc1	-8
COC(=O)C1=C(C)NC(C)=C(C(=O)OC)C1c1ccc(C(C)C)cc1	110*
COc1ccc(CN(C)C[C@@H]2Oc3c(NC(=O)Nc4c(C)noc4C)cccc3C(=O)N([C@H](C)CO)C[C@@H]2C)cc1	13
COc1cccc(-c2cc(C(F)(F)F)n3nc(C(=O)NCc4ccccn4)cc3n2)c1	12
C[C@H]1CN([C@@H](C)CO)C(=O)c2cc(N(C)C)ccc2O[C@@H]1CN(C)Cc1ccncc1	11
COc1ccccc1NC(=O)c1ccc(CSc2nc3ccccc3o2)cc1	5
C[C@@H]1CN([C@H](C)CO)C(=O)Cc2cc(NC(=O)Nc3ccc(C(F)(F)F)cc3)ccc2O[C@H]1CN(C)CC1CCCCC1	116*
O=C(NCc1ccccn1)c1cc(-n2cnnc2)ccc1Cl	11
C[C@@H]1CN([C@H](C)CO)C(=O)Cc2cc(NC(=O)Cc3cn(C)c4ccccc34)ccc2O[C@H]1CN(C)C(=O)Nc1ccc2c(c1)OCO2	6
COc1ccc(S(=O)(=O)N(C)C[C@@H]2Oc3ccc(NC(=O)CCN4CCOCC4)cc3C(=O)N([C@H](C)CO)C[C@H]2C)cc1	26
C[C@H]1CN([C@@H](C)CO)C(=O)c2cc(NS(=O)(=O)c3ccc(F)cc3)ccc2O[C@H]1CN(C)Cc1ccncc1	27
C[C@@H]1CN([C@H](C)CO)C(=O)c2cccc(NC(=O)C3CCOCC3)c2O[C@@H]1CN(C)S(=O)(=O)c1ccccc1	-11
Cc1ccc(S(=O)(=O)Nc2cccc3c2O[C@@H](CN(C)S(=O)(=O)c2cccs2)[C@@H](C)CN([C@@H](C)CO)C3=O)cc1	0
Cc1c(C)c(C)c(C(=O)c2ccccc2C(=O)NCc2cccnc2)c(C)c1C	38
C[C@@H]1CN([C@@H](C)CO)C(=O)c2cc(NC(=O)Cn3cnnn3)ccc2O[C@@H]1CN(C)Cc1ccc(C(=O)O)cc1	-9
COc1ccccc1N(Cc1cc2ccc(C)cc2[nH]c1=O)S(=O)(=O)c1ccccc1	108*
COc1ccc(CC(=O)Nc2cccc(C(=O)Nc3ccccc3C(=O)O)c2)cc1OC	-18
CCCCN(C)S(=O)(=O)c1cc(-c2nnc3c4ccccc4c(C)nn23)ccc1OC	53
O=C(Cc1cc(C(=O)O)c2ccccc2n1)Nc1ccccc1	64
CCCn1nnnc1NC(=O)COc1ccc(Cl)c(C)c1	15
Cc1noc(C)c1S(=O)(=O)Nc1ccc2c(c1)C(=O)N([C@H](C)CO)C[C@@H](C)[C@H](CN(C)Cc1ccccc1)O2	4
Cc1noc(C)c1S(=O)(=O)Nc1ccc2c(c1)CC(=O)N([C@H](C)CO)C[C@H](C)[C@H](CN(C)Cc1ccccc1)O2	3
COc1ccc(S(=O)(=O)Nc2ccc3c(c2)C(=O)N([C@H](C)CO)C[C@@H](C)[C@@H](CN(C)Cc2ccc(-c4ccccc4)cc2)O3)cc1	77
COc1ccc(S(=O)(=O)Nc2cccc3c2O[C@H](CN(C)C)[C@@H](C)CN([C@H](C)CO)C3=O)cc1	-3
Cc1ccc(S(=O)(=O)N(C)C[C@H]2Oc3ccc(NC(=O)NC4CCCCC4)cc3C(=O)N([C@@H](C)CO)C[C@H]2C)cc1	30
O=C(CN(c1ccc(F)cc1)S(=O)(=O)c1ccc2c(c1)OCCO2)N1CCc2ccccc2C1	6
COc1ccc(S(=O)(=O)N(C)C[C@H]2OCCCC[C@@H](C)Oc3ccc(NS(=O)(=O)c4cccs4)cc3C(=O)N([C@H](C)CO)C[C@@H]2C)cc1	-3
C[C@@H]1CN([C@@H](C)CO)C(=O)c2cc(NC(=O)CCC(F)(F)F)ccc2O[C@@H]1CN(C)Cc1ccc(C(F)(F)F)cc1	0
Cc1noc(C)c1NC(=O)Nc1cccc2c1O[C@@H](CN(C)C(=O)Nc1cccc3ccccc13)[C@@H](C)CN([C@@H](C)CO)C2=O	6
C[C@H]1CN([C@@H](C)CO)C(=O)c2cc(NC(=O)CCCN(C)C)ccc2O[C@@H]1CN(C)C(=O)NC1CCCCC1	-4
O=C1CCCCC1C(=O)c1ccccc1 (centres undefined)	-2
CC(C)NC(=O)Nc1ccc2c(c1)C(=O)N([C@H](C)CO)C[C@@H](C)[C@H](CN(C)C(=O)NC1CCCCC1)O2	3
C[C@@H]1CN([C@@H](C)CO)C(=O)c2cccc(NC(=O)c3ccc(-c4nccs4)cc3)c2O[C@@H]1CN(C)S(C)(=O)=O	-5
O=S(=O)(CCSc1ccccc1)c1ccccc1	17

Of the compounds above, these contain an aryl thioether with sulfur outside any ring.
molecule	NOMO-1 viab
COc1ccc(-n2c(CSc3nnc(-c4ccc(OC)c(OC)c4)n3-c3ccccc3)n[nH]c2=S)cc1	30
Cc1nnc(SCC(=O)Nc2cccc(Cl)c2Cl)n1-c1ccc(F)cc1	31
O=C1c2cccc3cccc(c23)C(=O)N1CCCSc1nnc(-c2ccncc2)n1-c1ccccc1	30
COc1ccccc1NC(=O)c1ccc(CSc2nc3ccccc3o2)cc1	5
O=S(=O)(CCSc1ccccc1)c1ccccc1	17

Screening data from PubChem BioAssay.

These rows are one share of the data; the hit share may differ from the screen's.
